Screening results from PubChem.
Rce1 inh: inhibitors of yeast Ras-converting enzyme; Q03530; yeast membranes, quenched prenylated peptide cleavage fluorescence; calls only; actives 0.27% (n = 290,000); AID 2563;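 active = fall in fluorescence gain of 50% or more versus controls, with final raw signal at or below 3038400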;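 also: plate controls were neutral control wells for no effect and wells lacking membranes for full effect; tested at 10 µM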
eIF4H FP inh: inhibitors of RNA binding by human eIF4H; eIF4H fluorescence polarization binding assay; inhibition, % at 35 µM; actives 0.94% (n = 290,000); AID 2012;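 active = 50% or more with normal probe brightness, or confirmed in later tests; about a fifth of its hits are not listed in these tables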;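 also: calls also rest on retests at 20 µM and on dose response follow-up; 0% = protein and probe with vehicle and 100% = probe without protein; strong numbers were not always called active; many hits fall short of the cut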
MT1-MMP act inh: inhibitors of human MT1-MMP activation | HT1080 RFP-PRO-GFP cells, GFP/RFP ratio fluorescence, overnight; percent of plate control window, DMSO zero | GFP/RFP ratio change, % at 20 µM | actives 0.061% (n = 360,000) | AID 651647;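 active = GFP/RFP ratio change of at least 30% with cell ATP level not reduced by more than half and red fluorescence within 50% of control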; also: strong numbers were not always called active
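Assay system: HT1080 cells carrying an RFP-PRO-GFP reporter | Dosing: Single dose of 20 µM compound, 1% DMSO final | Incubation: Cells overnight before dosing, compound overnight, 37 °C, 5% CO2 | Evaluation: GFP/RFP fluorescence ratio | Control set: DMSO and RFP-L50D-GFP cell wells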
CSC inhib: cancer stem cell inhibition; cancer stem cell-like cells viability, luminescence; inhibition, % at 7.5 µM; actives 1.1% (n = 300,000);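 active = mean at 75% or more and at least half the replicates too; tested in HMLE shEcad cells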;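 also: 0% = median of negative and 100% = median of positive control wells; the first replicate is given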
UUG fidelity: modulators of start codon recognition fidelity in yeast. activity score, % at 18.7 µM. S. cerevisiae UUG-firefly luciferase reporter, luminescence/redox ratio. actives 0.13% (n = 350,000);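 active = replicate mean at a twofold rise or more, about +100% in these data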;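 also: firefly luciferase made from a UUG start codon reports start codon fidelity; reporter light over untreated wells divided by growth signal over untreated wells; some hits fall short of that in this replicate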
Env fusion inh: HIV envelope-mediated fusion inhibition. AID 651610. inhibition, % at 12.3 µM. HeLa-JRFL Env/CEM21 cell fusion, luciferase. actives 1.1% (n = 360,000);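 active = mean replicate inhibition score of at least 50 and every replicate individually at or above 50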;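 also: 0% = plate neutral controls and 100% = maraviroc near 300 nM; one replicate is shown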
PABP FP inh: PABP-poly(A) binding inhibition; PABP-poly(A) RNA binding, fluorescence polarization; actives 1% (n = 290,000); AID 2014; inhibition, % at 35 µM; P11940;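 active = 50% or more with normal probe brightness, or confirmed in later tests; about a fifth of its hits are not listed in these tables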;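 also: calls also rest on retests at 20 µM and on dose response follow-up; controls were probe without protein and protein plus probe with vehicle; some compounds called inactive have numbers as strong as hits; many hits fall short of the cut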
Target sequence (P11940 whole entry, looked up): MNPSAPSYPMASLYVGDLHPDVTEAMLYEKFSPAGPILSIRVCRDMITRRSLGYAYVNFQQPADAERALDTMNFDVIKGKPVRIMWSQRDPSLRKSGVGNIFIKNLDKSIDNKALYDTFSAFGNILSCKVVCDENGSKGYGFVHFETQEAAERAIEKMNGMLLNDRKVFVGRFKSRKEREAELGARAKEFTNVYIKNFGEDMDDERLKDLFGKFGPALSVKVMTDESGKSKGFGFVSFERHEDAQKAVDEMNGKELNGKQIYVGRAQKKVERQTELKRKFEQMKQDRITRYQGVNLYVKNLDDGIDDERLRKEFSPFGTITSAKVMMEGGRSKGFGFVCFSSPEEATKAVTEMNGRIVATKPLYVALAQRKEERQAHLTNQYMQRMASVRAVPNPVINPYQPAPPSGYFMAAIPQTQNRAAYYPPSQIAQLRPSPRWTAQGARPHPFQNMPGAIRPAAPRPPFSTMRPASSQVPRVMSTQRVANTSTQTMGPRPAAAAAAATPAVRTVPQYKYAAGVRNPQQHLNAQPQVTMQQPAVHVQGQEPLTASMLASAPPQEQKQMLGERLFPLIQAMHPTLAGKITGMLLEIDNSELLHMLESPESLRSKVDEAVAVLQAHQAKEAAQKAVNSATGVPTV
eIF4H FP inh retest: also measured in eIF4H FP inh; calls as there; inhibition, %; compound at 20 µM; confirmation average;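 mean of two retest wells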
PABP FP inh retest: further read-out of PABP FP inh, marked with its call; inhibition, %; compound at 20 µM; confirmation repeats;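 mean of two retest wells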
MT1-MMP act inh RFP: further read-out of MT1-MMP act inh, marked with its call; RFP signal change, %; measured here: RFP expression control read;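 0 = vehicle wells; hits needed this value within 50% of zero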
Starred values were filed as active, the others as inactive; i = inactive; / = no result given; & = joins results of further samples.

SMILES	Rce1 inh	eIF4H FP inh	MT1-MMP act inh	MT1-MMP act inh RFP	CSC inhib	UUG fidelity	Env fusion inh	PABP FP inh	others
Cc1ccc(C)c(OCCn2cc(/C=C(\C#N)C(=O)NCc3cccs3)c3ccccc32)c1	i	2	-2	-3	27	-19	-4	0
COC(=O)C1C/C(=N\NS(=O)(=O)c2ccc(C)cc2)c2ccccc2C1 (stereo unspecified)	i	-1	-3	1	-28	6	-6	5
CC(C)C(=O)Nc1cc(C(F)(F)F)ccc1N1CCOCC1	i	-7	4	0	-9	-26	/	-3
COc1ccc(-c2nc(C3CCCCC3)no2)cc1OC	i	-8	-2	-2	-7	-19	/	-5
O=C(CCNS(=O)(=O)c1ccccc1C(F)(F)F)NCc1ccc2c(c1)OCO2	i	-4	1	7	-15	14	30	-6
CCCCCC(=O)NNC(=O)c1ccc(F)cc1	i	-11	3	9	-6	-8	12	-3
CC1(C(=O)Nc2ccccc2)CCN1C(=O)C1(c2ccc(Cl)cc2)CC1 (stereo unspecified)	/	/	-2	-5	/	2	11	/
Cc1ccccc1NC(=O)C1CCCN1C(=O)NC1CCCCC1 (stereo unspecified)	i	3	-1	-2	-5	-20	11	10
COC(=O)[C@@H]1C[C@@]2(Br)c3ccccc3N(S(=O)(=O)c3ccccc3)[C@H]2N1C(=O)OC	i	/	-4	-1	1	-6	10	/
O=C(CCCN1C(=O)/C(=C/c2ccccc2Cl)SC1=S)Nc1ccccn1	i	-4	0	1	/	-26	21	-9
COc1ccc(NC(=O)Cn2nc([N+](=O)[O-])c(Cl)c2C)cc1OC	i	-3	2	-1	-7	-15	3	-1
COc1ccccc1NC(=O)COC(=O)/C=C/c1ccc2c(c1)OCO2	i	6	0	0	-4	/	8	-5
Cc1cccc(N2C(=O)CC(N3CCOCC3)C2=O)c1 (stereo unspecified)	i	4	-4	0	-1	-5	/	1
N=c1n(CCO)c2ccccc2n1CCOc1ccccc1	i	4	0	5	-7	0	/	2
CC(C)c1ccc2oc(=O)cc(CN3CCN(c4ccccc4)CC3)c2c1	i	9	-3	-8	12	-23	/	-2
O=C(c1cc2cc(Cl)cc(Cl)c2oc1=O)N1CCOCC1	i	3	8	9	-6	/	/	4
CCS(=O)(=O)c1ccc(NC(=O)c2ccccc2Cl)c(O)c1	i	20	1	-1	-1	-15	/	-1
CCOc1ncccc1C(=O)OCC(=O)Nc1ccc2c(c1)CCC2	/	/	2	3	21	2	-12	/
Cc1ccc(NC(=O)C2=CN3CCS(=O)(=O)N=C3C=C2)cc1	/	/	0	0	-13	-8	-51	/
Cc1ccc(NC(=O)CN(C)CC(=O)Nc2ccccc2-c2ccccc2)cc1	i	7	3	-2	1	/	40	10
COc1ccc(-n2nnc3c(SC(C(C)=O)C(=O)N(C)C)ncnc32)cc1 (stereo unspecified)	i	-14	1	4	-23	-15	-6	0
O=[N+]([O-])c1ccc(/C=N\N2CCN(c3ccc(Cl)cc3)CC2)cc1	i	-4	-3	-4	/	-15	/	-11
CCS(=O)(=O)N1N=C(c2cccs2)CC1c1cc2cc(C)ccc2nc1Cl (stereo unspecified)	i	14	-29	-11	1	-17	-18	-25
CC(C)(C)c1ccc(C(=O)O)c(C(=O)c2ccc(C(=O)O)cc2)c1	i	1	-2	6	-26	-13	-4	1
Cc1cc(N2CCOCC2)nc(NCc2ccccc2)n1	i	-4	5	-5	-13	-13	/	6
CCc1noc(C)c1C(=O)NC1CC(C)(C)Cc2c1cnn2-c1ccccc1 (stereo unspecified)	/	7	5	4	-10	-7	8	2
Cc1nn(CCO)c2ncc(C(=O)c3cc(Cl)ccc3O)cc12	/	3	0	0	-4	-3	-2	7
O=C(O)Cc1ccc(-c2ccccc2)cc1	i	2	1	3	/	-11	/	12
O=S(=O)(c1ccccc1)N(CC(O)CN1CCOCC1)c1ccccc1 (stereo unspecified)	i	-8	3	2	-8	-8	-59	4
CCOC1=C/C(=C/c2c(N)n3oc(C)cc3nc2=O)C=CC1=O	i	-20	/	/	-7	/	/	2
CC(=O)N1CCN(c2ccc(NC(=O)c3ccc(C)cc3)cc2)CC1	i	-4	3	1	/	/	-54	-20
Cc1cn([C@H]2C[C@H](O)[C@@H](CNCc3cccc(OC4CCCC4)c3)O2)c(=O)[nH]c1=O	/	/	-5	2	/	1	4	/
CN(C)CC1CCCCC1OC(=O)c1ccc(Br)cc1 (stereo unspecified)	i	-6	3	7	12	/	-1	-3
Cc1ccc(OCCNC(=O)c2cccc(S(=O)(=O)N3CCN(C)CC3)c2)cc1	/	/	1	5	/	-16	-1	/
O=C(Cn1ccc2cc(S(=O)(=O)N3CCCC3)ccc21)NCCc1ccccc1	i	-7	5	-1	-2	16	5	-6
O=C(COC(=O)c1ccc2c(c1)OCO2)Nc1ncc(Cl)cc1Cl	i	8	1	7	-9	/	9	2
COc1cccc(Nc2nc(N)nc(C(F)(F)F)n2)c1	i	-6	-13	-9	11	-21	-310	0
CCc1cc2ccc(C)c(C)c2nc1SCC(=O)NNC(=O)c1ccco1	i	-6	1	5	-6	/	-1	6
O=C(c1cc(Cl)nc2ccccc12)N(Cc1nnc(-c2ccc(Cl)cc2)o1)C1CC1	i	/	0	-4	7	/	-11	/
O=C(CNC(=O)c1ccccc1)Nc1ccsc1C(=O)O	i	3	-4	0	-10	-10	18	-4
COc1ccc(C(=O)OCC(=O)NC(C)(C)C)cc1[N+](=O)[O-]	i	-7	4	4	-6	/	/	-7
O=C(CCC(=O)N(CC(=O)NC1CCCCC1)c1ccc2c(c1)OCO2)Nc1ccccn1	i	-9	-4	1	-16	-9	/	-1
COc1cc(CC(=O)Nc2sccc2C(N)=O)cc(OC)c1OC	i	2	-45	-6	0	-11	/	-4
COc1ccc(CNC(=O)C2CCCN2S(=O)(=O)c2ccc(F)cc2)cc1 (stereo unspecified)	i	-9	2	5	-8	/	8	-2
COc1ccc(/C(O)=C2\C(=O)C(=O)N(CCN3CCOCC3)C2c2ccccc2OC)cc1 (stereo unspecified)	/	-7	0	2	/	/	-7	-4
Cc1c(C(c2cccc([N+](=O)[O-])c2O)c2c(C)n(C)n(-c3ccccc3)c2=O)c(=O)n(-c2ccccc2)n1C	i	-4	5	1	1	-7	-81	9
CCOC(=O)c1c(NC(=O)Cc2cccs2)sc2c1CCCC2	i	7	-3	-4	38	-11	/	-3
Cc1nc(CNS(=O)(=O)c2cccs2)cs1	i	0	-1	3	-5	/	6	6
COc1ccc(N(CC(=O)NCc2ccco2)S(C)(=O)=O)cc1	i	-5	5	6	3	-15	/	-2
CC(C)(C)CN1CCN(Cc2c[nH]c3ccccc23)CC1CCO (stereo unspecified)	i	-7	-1	6	5	-18	6	-3

(next part)
SMILES	Rce1 inh	eIF4H FP inh	MT1-MMP act inh	MT1-MMP act inh RFP	CSC inhib	UUG fidelity	Env fusion inh	PABP FP inh	others
CN(CC(O)COCc1ccccc1F)C1CCCCC1 (stereo unspecified)	i	0	1	2	2	-7	15	0
COc1ccc2c(CC(=O)NNC(=O)c3ccc(O)cc3)coc2c1	/	/	0	6	-8	1	8	/
COc1ccc(NC(=O)C2CCCN(C(=O)Nc3ccc(F)cc3)C2)cc1OC (stereo unspecified)	i	6	3	2	-7	-9	18	4
CCNC(=O)c1ccccc1CCc1ccccc1	i	-2	1	3	1	6	-7	-7
Cc1noc(C)c1CSc1nc2[nH]ncc2c(=O)n1-c1ccccc1	i	-6	10	-1	-7	-49	/	52	eIF4H FP inh retest=-1;PABP FP inh retest=0
Cc1cc(N2CCN(C)CC2)nc2ccc(NC(=S)NCCCN3CCc4ccccc4C3)cc12	i	23	6	2	29	-16	3	19
COc1cccc(C(=O)Nc2cc(-c3cn4cccnc4n3)ccc2C)c1	i	-6	4	6	-13	3	-5	19
C=CCNc1nc(N2CCOCC2)nc(N2CCOCC2)n1	i	-4	-6	-2	-16	-11	/	-11
O=S(=O)(/N=C(/Nc1cccc2ccccc12)c1ccccc1)c1cccs1	i	8	-4	-2	-17	-12	/	-8
Cn1nc(C(=O)N2CCc3ccccc32)c2ccccc2c1=O	i	6	-1	4	-20	/	4	5
CN(CC(O)COc1ccc(S(=O)(=O)N2CCOCC2)cc1Cl)C1CCCCC1 (stereo unspecified)	i	-8	-6	-4	40	5	-2	-8
COc1ccc(NC(=O)C2(C)CCN2Cc2cccc(OC)c2OC)cc1OC (stereo unspecified)	/	/	5	3	/	-15	20	/
CC(CCc1ccccc1)NC(=O)C(=O)N1CCOCC1 (stereo unspecified)	i	1	-1	4	/	/	4	-1
O=C(CN1CCN(Cc2ccccc2)CC1)NCCc1ccccc1	i	7	2	3	-10	0	-55	6
CCC1=NN2C(=N)/C(=C\c3cccn3-c3c(C)cccc3C)C(=O)N=C2S1	i	4	-2	0	24	-17	1	-2
Cc1noc(C)c1S(=O)(=O)Nc1ccc2c(c1)C(=O)N([C@H](C)CO)C[C@H](C)[C@@H](CN(C)S(=O)(=O)c1ccccc1)O2	/	/	-4	3	-26	9&-10	-11	/
O=C(NCCN1CCOCC1)c1ccc2c(c1)N(Cc1ccccc1F)C(=O)c1ccccc1S2	i	0	-2	-9	28	-6	4	-5
Cc1ccc(S(=O)(=O)NC(CC(=O)NCC2CCCO2)c2ccco2)cc1 (stereo unspecified)	i	6	2	0	1	/	/	2
Cc1cc(-c2ccc(C)c(S(=O)(=O)N3CCN(c4ccc(F)cc4)CC3)c2)on1	i	-13	7	-26	27	-2	6	4
COc1cc(CCC(=O)O)on1	i	-6	-3	5	0	-6	3	11
Cc1ccc(C)c(NC(=O)CN(C)C(=O)c2ccc(COc3ccccc3)cc2)c1	/	/	3	-7	/	-9	-12	/
Cc1cccc(N=C2CSC(=O)N2)c1	i	-5	-1	-1	-4	-16	-40	-11
COCCN(Cc1cn[nH]c1-c1ccc2cc(OC)ccc2c1)C(C)C	i	-2	-1	1	/	-9	-15	-1
O=C(Nc1nc2c(cc3c4c(cccc42)CC3)s1)c1ccccc1Cl	i	-3	-6	-5	/	/	3	-7
CCOC(=O)C1CCN(C2=C(NS(=O)(=O)c3ccc(Br)cc3)C(=O)c3ccccc3C2=O)CC1	i	-4	3	-2	20	-13	-14	-4
CCc1nnc(NC(=O)c2ccc(S(=O)(=O)N3CCN(Cc4ccccc4)CC3)cc2)s1	i	-5	1	-15	8	-26	/	17
COc1ccc(/C(O)=C2/C(=O)C(=O)N(CC3CCCO3)C2c2cccc(OC)c2)cc1 (stereo unspecified)	i	1	-1	1	-15	11	/	2
O=C(Oc1cccc(Nc2ncnc3ccccc23)c1)c1ccccc1Cl	i	-5	3	-10	0	-30	36	-4
CCNC(=O)C1(C)CCCN(C(=O)c2cc(-c3ccccc3)cs2)C1 (stereo unspecified)	/	/	0	2	/	4	-2	/
CC(C)C1C(=O)N(Cc2cn(CCC3OCCCO3)nn2)CCS(=O)(=O)N1Cc1ccc(-c2ccc(F)nc2)cc1 (stereo unspecified)	/	/	3	1	/	2	7	/
